# NPYLR7 ag: agonists of mosquito NPYLR7 receptor, primary screen, cell-based, Aedes aegypti, calcium fluorescence, mosquito biting behavior; AID 1259423, 2018; HEK293T NPYLR7/Galpha15, GCaMP6s calcium fluorescence; Aedes aegypti neuropeptide Y-like receptor 7 (NPYLR7); hit rate 0.15% among 270,000; activation, % at 10 µM; in the data active = activation above about 40%;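 also: 0% = vehicle and 100% = reference agonist at the receptor; some compounds past the cut are filed as inactive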
# NPYLR7 ag max-min: recorded beside NPYLR7 ag, whose call it bears; activation, %; measured here: Max-Min RFU normalised activation; some inactives read as strong as hits;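 span of the calcium signal over five minutes; 0% = vehicle and 100% = native peptide agonist; compound fluorescence can raise it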
# Starred values were filed as active, the others as inactive; & = joins results of further samples. The list is partial; the hit share may differ from the screen's.
cpd	mol	NPYLR7 ag	NPYLR7 ag max-min
1	O=C(NCc1nnc2n1CCCC2)c1cn(-c2ccccc2)nn1	5	2
2	Cc1nc(CCC(=O)Nc2ccc(NC(=O)NC(C)C)cc2)cs1	-5	-5
3	COCCN(Cc1cc(C)[nH]n1)CC1CCCN(C2Cc3ccccc3C2)C1 (stereo not given)	7	5
4	CCN1CCc2c(c(CN(CC3CC3)C(=O)Nc3ccccc3)nn2-c2ccccc2)C1	4	3
5	CCOc1ccc(NC(=O)CN2Cc3ccccc3CC2C(N)=O)cc1 (stereo not given)	1	25
6	CC(O)c1cc(C(F)(F)F)cc(C(F)(F)F)c1 (stereo not given)	11	13
7	CC(=O)NC(C(=O)N(C)Cc1csc2ccccc12)C1CCCC1 (stereo not given)	1	-3
8	COCCNC(=O)c1cc(-c2cccc(OC)c2)nc2cc(C(C)(C)C)nn12	5	11
9	COc1ccccc1-n1c(Cc2ccccc2)nnc1SCc1ccc(C(=O)Nc2ccc3c(c2)OCO3)cc1	-9	-8
10	C/C(=N\NC(=O)c1cc(-c2cccc([N+](=O)[O-])c2)n[nH]1)c1ccco1	-7	-5
11	CS(=O)(=O)NCCC1CCCN(Cc2ccc3ccccc3n2)C1 (stereo not given)	2	0
12	COc1ccc(-c2cc(NC=O)c3ncc(-c4ccc(F)cc4)n3c2)cc1OC	-6	-9

cpd	mol	NPYLR7 ag	NPYLR7 ag max-min
13	CC(CCc1ccccc1)NC(=O)N1CCN(S(=O)(=O)c2ccccc2F)CC1 (stereo not given)	3	-1
14	COc1ccc(CNC(=O)c2cccnc2N2CCCC2)cn1	7	4
15	CC=Cc1ccc(OC2OC(CO)C(O)C(O)C2NC(C)=O)c(OC)c1 (stereo not given)	-1	3
16	COC(=O)N(C)CCCC(=O)NC1CC1c1ccccc1Cl (stereo not given)	12	7
17	COc1ccc(C(=O)NCC2CCCCC2)cc1F	-1	-1
18	C=CCn1c2ccc(Br)cc2c2nc3ccccc3nc21	0	-4
19	CCOC(=O)C1CCCCN1C(=O)c1cc(COc2ccc(C)c(C)c2)on1 (stereo not given)	8	5
20	CCc1cc(CN2CCCC(c3[nH]ncc3CC)C2)[nH]n1 (stereo not given)	0	7
21	CC1(C)O[C@@H]2C[C@@](OCc3ccccc3F)(C(=O)NN3CCOCC3)CC(OCC3CC3)[C@@H]2O1 (stereo not given in full)	18	25
22	COc1cccc(-c2cc(C(=O)NC(C)(C)C)nc3cc(C(C)(C)C)nn23)c1	6	3
23	CSC1CCC(NC(=O)NCc2ccc(F)c(CN(C)C)c2)C1 (stereo not given)	2	-1
24	CCOc1ccc(NC(=O)N(CC(=O)N(Cc2ccc3c(c2)OCO3)Cc2cccs2)C2CC2)cc1	16	16

cpd	mol	NPYLR7 ag	NPYLR7 ag max-min
25	CC(=O)Oc1ccc(CN2C(=O)C(C)ON=C2c2cccs2)cc1 (stereo not given)	0	-2
26	COc1ccccc1N1CCN(c2ccc(NC(=O)Nc3ccc(Cl)cc3)cc2C(=O)NC(C)c2ccccc2)CC1 (stereo not given)	13	18
27	Clc1ccc(N2CCN(Cc3cnn4cccnc34)CC2)nc1	-6	-9
28	Cc1cc(NN)nc(-c2ccccc2O)n1	-11	-15
29	CC(C)(C)c1nn2cnnc2n(/N=C\c2ccccc2O)c1=O	3	1
30	O=C1OC(c2ccccc2)=N/C1=C\c1ccccc1C(F)(F)F	-2	-3
31	CC(=O)c1c(C)[nH]c(-c2csc(N3CCN(C)CC3)n2)c1C	19	12
32	Cc1ccccc1-c1nnc2ccc(-c3ccc4ncccc4c3)cn12	-2	-10
33	CC(=O)c1ccc(S(=O)(=O)N2CCN(CCC(=O)N3CCc4ccccc43)CC2)cc1	17	8
34	C=CCn1cc(C(=O)Nc2ccc(C)cc2C)c2nn(-c3ccccc3)c(=O)c-2c1	5	3
35	CCOCCn1c(CN2CCCCC2C)nc2c1c(=O)n(C)c(=O)n2C (stereo not given)	2	2
36	CCOc1ccc2nc(Cl)c(/C=C/C(=O)c3ccco3)cc2c1	-3	-6

# Four records drawn at random from the list so far:
cpd	mol	NPYLR7 ag	NPYLR7 ag max-min
35	CCOCCn1c(CN2CCCCC2C)nc2c1c(=O)n(C)c(=O)n2C (stereo not given)	2	2
25	CC(=O)Oc1ccc(CN2C(=O)C(C)ON=C2c2cccs2)cc1 (stereo not given)	0	-2
31	CC(=O)c1c(C)[nH]c(-c2csc(N3CCN(C)CC3)n2)c1C	19	12
33	CC(=O)c1ccc(S(=O)(=O)N2CCN(CCC(=O)N3CCc4ccccc43)CC2)cc1	17	8

# The main list resumes with the 4 entries that preceded the break.
cpd	mol	NPYLR7 ag	NPYLR7 ag max-min
33	CC(=O)c1ccc(S(=O)(=O)N2CCN(CCC(=O)N3CCc4ccccc43)CC2)cc1	17	8
34	C=CCn1cc(C(=O)Nc2ccc(C)cc2C)c2nn(-c3ccccc3)c(=O)c-2c1	5	3
35	CCOCCn1c(CN2CCCCC2C)nc2c1c(=O)n(C)c(=O)n2C (stereo not given)	2	2
36	CCOc1ccc2nc(Cl)c(/C=C/C(=O)c3ccco3)cc2c1	-3	-6
37	CO[C@H]1[C@H](NC(=O)c2ccncc2)c2ccccc2C12CCN(C(=O)CCn1nc(C)cc1C)CC2	21	8
38	C=CCN1C(=O)C(=Cc2c(N3CCC(C)CC3)nc3c(C)cccn3c2=O)SC1=S	6	3
39	O=S(=O)(/C=C/c1ccccc1)N1CCN2CCCC2C1 (stereo not given)	3	5
40	CC(C)c1cc(=O)[nH]c(-n2nc(-c3cccs3)cc2NC(=O)CCc2ccccc2)n1	2	-2
41	COc1ccccc1/C=C1/C(=N)N2N=C(c3ccccc3)SC2=NC1=O	0	-1
42	CCOC(=O)N1CCN(C(c2ccc(C)cc2)c2c(O)cc(C)n(Cc3cccnc3)c2=O)CC1 (stereo not given)	12	3
43	CCCn1c(N2CCN(Cc3ccc(Cl)cc3Cl)CC2)nc2c1c(=O)[nH]c(=O)n2C	3	0
44	COCCN(Cc1nc(C(=O)NC2CCN(Cc3ccccc3)CC2)cs1)C(=O)Nc1ccc(Cl)cc1	18	17
45	Cc1ccc(-c2nnc(NCCCO)c3ccccc23)cc1	-1	4
46	CCCOc1ccc(C(=O)Nc2cccc(Oc3ncccc3C(=O)OCC)c2)cc1	-8	-11
47	O=[N+]([O-])c1ccc(CSc2ccc3nnc(-c4ccccn4)n3n2)cc1	-2	-4
48	Cc1ccc2oc(C(=O)N3CCN(CCn4cncn4)CC3)cc2c1	1	0

cpd	mol	NPYLR7 ag	NPYLR7 ag max-min
49	COc1ccc(C)cc1N1C(=O)C(c2c(-c3ccccc3)[nH]n(-c3ccccc3)c2=O)=C(N2CCOCC2)C1=O	3	11
50	COCCN(CC(=O)N1CCc2sccc2C1c1ccccc1C)C(=O)c1cccc(Cl)c1 (stereo not given)	-12	-11
51	O=C(Nc1ccc(SCCN2CCCCCC2)nn1)c1cccs1	8	0
52	CC(CNC(=O)c1ccc(Cn2ccccc2=O)o1)N(C)C (stereo not given)	0	0
53	COCCNC(=O)CSc1nc(Cl)cc(N2CCN(C(=O)c3cccc(F)c3)C(C)C2)n1 (stereo not given)	1	-6
54	Cc1c(C(=O)NCc2ccccc2)sc(=O)n1Cc1ccccc1F	12	9
55	CC1(C)CC(=O)/C(=C/c2cccs2)C(C)(C)N1	4	3
56	CC(C1CC1)N(C)C(=O)c1cccc(S(=O)(=O)N(C)C)c1 (stereo not given)	0	-4
57	Cc1ccc(Cl)cc1-n1c(SCc2nc(C(=O)NCCN3CCCCC3)cs2)nnc1-c1cccnc1	-6	-5
58	COC(=O)c1ccc2c(c1)CC(CNC(=O)c1cc(F)ccc1F)O2 (stereo not given)	4	4
59	Cc1cccc(C2c3cccn3-c3ccccc3N2C(=O)CN(C(=O)c2cccc([N+](=O)[O-])c2)C2CC2)c1 (stereo not given)	-2	4
60	CC(NC(=O)CCN(c1nc(C2CC2)nc2cc(Cl)ccc12)C1CCCCC1)c1ccccc1 (stereo not given)	-17	2

# Sorted by molar mass (rising): some entries from above.
cpd	mol	NPYLR7 ag	NPYLR7 ag max-min
56	CC(C1CC1)N(C)C(=O)c1cccc(S(=O)(=O)N(C)C)c1 (stereo not given)	0	-4
53	COCCNC(=O)CSc1nc(Cl)cc(N2CCN(C(=O)c3cccc(F)c3)C(C)C2)n1 (stereo not given)	1	-6
50	COCCN(CC(=O)N1CCc2sccc2C1c1ccccc1C)C(=O)c1cccc(Cl)c1 (stereo not given)	-12	-11

# Additional structures follow.
cpd	mol	NPYLR7 ag	NPYLR7 ag max-min
61	CNc1ncc(C(=O)N2CCCC(C(=O)c3cc(C)c(OC)c(C)c3)C2)cn1 (stereo not given)	-5	-13
62	CC(C)(C)CC(=O)N(CC(=O)N1CC(=O)N(c2ccc(Cl)cc2)C1)C1CC1	-3	9
63	CCOC(=O)C1CCCN(C(=O)c2c(C)c(C(C)=O)c(C)n2Cc2ccc(F)cc2)C1 (stereo not given)	13	17
64	CC(C)CNc1ccc([N+](=O)[O-])cc1S(N)(=O)=O	16	6
65	O=C(C=Cc1ccccc1)Nc1nnc(C2CC2)s1	2	-3
66	O=C(O)C1CC(=O)N(Cc2cccc(-n3cccn3)c2)C1 (stereo not given)	10	7
67	O=C(NCC1CCCCC1)c1cc(-c2cc(F)ccc2OCC2CCCO2)n[nH]1 (stereo not given)	1	0
68	CCc1c(C)nc(-n2nc(C)cc2NC(=O)c2ccccc2C)[nH]c1=O	3	2
69	CCCN1CCC2(CC1)Nc1ccccc1C(=O)N2C	-23	-24
70	O=C(COc1ccccc1)NCCNc1ccc(Nc2ccccn2)nn1	9	2
71	Cc1csc(NC(=O)C2CCCC2)n1	-6	-11
72	CCCCCn1cc(C2CCN(C(=O)CCCCCCC(=O)OC)CC2)c2ccccc21	9	6

cpd	mol	NPYLR7 ag	NPYLR7 ag max-min
73	CN1CCCn2nc(C(=O)NCC3(COc4ccccc4)CC3)cc2C1	20	5
74	CNC(=O)c1ccccc1NCC(=O)NCC(F)(F)F	0	-2
75	CCc1cc(=O)[nH]c(-n2nc(C)cc2NC(=O)Cc2ccc(OC)cc2)n1	-10	-10
76	CCc1ccc2nc(N(Cc3ccccn3)C(=O)Cc3ccc(S(C)(=O)=O)cc3)sc2c1	5	5
77	CC(C)(C)NC(=O)C1CSCN1C(=O)/C=C/c1ccccc1OC(F)(F)F (stereo not given)	2	7
78	O=C(c1cccc(-c2ncc[nH]2)c1)N1CCOC(c2ccc(Cl)cc2)C1 (stereo not given)	28	22
79	CC1CC(C)CN(C(=O)C2CCN(S(=O)(=O)c3cc(Cl)ccc3Cl)CC2)C1 (stereo not given)	-9	-12
80	Cc1cc(NC(=O)c2ccccc2S(C)(=O)=O)n(-c2nc3ccccc3s2)n1	-9	-13
81	CCOc1ccc(-c2nnc3ccc(SCC(=O)Nc4ccc(C(=O)OC)cc4)nn23)cc1	14	14
82	COc1ccc2c(c1OC)CN(Cc1cccc(Cl)c1)CC2	4	5
83	CCc1nc2n(n1)C(=O)C(C(c1ccco1)N1CCN(c3ccc(OC)cc3)CC1)S2 (stereo not given)	-5	-5
84	C=CCN(CC(=O)N(CCc1c[nH]c2ccccc12)Cc1ccc(Cl)c(Cl)c1)C1CC1	1	10

# As entered above:
# Entry for entry 65 in NPYLR7 ag max-min: -3
# Entry for entry 11 in NPYLR7 ag: 2
# Entry for entry 76 in NPYLR7 ag: 5
# Entry for entry 18 in NPYLR7 ag: 0
# Entry for entry 33 in NPYLR7 ag: 17
# Entry for entry 23 in NPYLR7 ag max-min: -1
# Entry for entry 27 in NPYLR7 ag max-min: -9

# The results go on.
cpd	mol	NPYLR7 ag	NPYLR7 ag max-min
85	COC(=O)C1C(=O)C(C(=O)OC)C(c2cccs2)C(C#N)(C#N)C1c1cccs1 (stereo not given)	-6	-9
86	CCCN(Cc1ccsc1)CC(O)COc1ccccc1 (stereo not given)	27	23
87	O=C(CC1(O)C(=O)Nc2ccc(Cl)cc21)c1ccc(Cl)cc1 (stereo not given)	3	-1
88	Cc1[nH]nc(-n2cccn2)c1[N+](=O)[O-]	3	12
89	COc1ccc(S(=O)(=O)N2CCNC(=O)C2C(C)C)c(C)c1C (stereo not given)	5&7	1&5
90	Nc1ccc(-c2c(-c3ccccc3)[nH]n(-c3ccccc3)c2=O)cc1	11	5
91	O=C(O)CS(=O)(=O)Cc1ccc(Br)cc1	-1	-3
92	O=C(CN1CCOc2ccccc2C1)Nc1cnc2n1CCCC2	11	5
93	CCCN(C)c1cc(C)nc(SCc2ccc(C(=O)N3CCCC(C(=O)OCC)C3)o2)n1 (stereo not given)	11	10
94	COc1ccc(-c2nc[nH]c2-c2ccccc2)cc1CN(C)C	10	6
95	COC(=O)Cn1c(=NC(=O)CCS(=O)(=O)c2ccccc2)sc2c(OC)ccc(OC)c21	3	2
96	C=C(C)Cn1c(SCC(=O)N/N=C\c2sccc2C)nnc1-c1ccc(Br)cc1	-4	-9

cpd	mol	NPYLR7 ag	NPYLR7 ag max-min
97	Cc1ccccc1C(=O)NC(C(=O)N1CCCC1)C1CCN(S(=O)(=O)c2ccc(Cl)cc2)CC1 (stereo not given)	22	21
98	Cc1cc(NC2CC3CC2C2CCCC32)nc(C)n1 (stereo not given)	1	6
99	Cc1ccc2c(Nc3ccc(Br)cc3F)c(C(=O)N3CCCC(C)C3)cnc2n1 (stereo not given)	10	8
100	Cc1ccc(N2C(=O)CSC23C(=O)Nc2ccccc23)cc1Cl (stereo not given)	0	-1
101	CCOc1cc(C=CC(=O)N2CCC(C(=O)Nc3ccc4c(c3)OCO4)CC2)cc(Cl)c1OC	-11	-12
102	CCOC(=O)C1CCCCN1CC(=O)N1N=C(c2ccc(C)cc2C)CC1c1cccc(OC)c1 (stereo not given)	19	14

# Source: PubChem BioAssay
